# Bioassay records deposited in PubChem by National Center for Advancing Translational Sciences (NCATS).
# NS1 function inh – inhibitors of influenza NS1 protein function; S. cerevisiae slowed by influenza A NS1, growth recovery by OD600; Potency, µM (titrated, usually from 46.1 µM), for the others: at the highest dose activity, positive = more growth; actives 0.4% (n = 270,000); active means well fitted rising curve with a large enough effect; inconclusive means small, poorly fitted or top-dose-only effect; inactive means no such curve, though single readings can be large or run the other way; also: nearly all actives have a fitted effect of over 50% in size
#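 Compounds were scored for reversing the slow growth caused by influenza A NS1 in S. cerevisiae, measured by optical density at 600 nm. Assay medium contained 2% galactose at pH 6.0; NS1-free yeast of the same strain were the positive control.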
# MARV entry inh – Marburg virus entry inhibition. Potency, µM (top dose mostly 37.8 µM), without a hit: at the highest dose activity change, negative = inhibition, actives largely listed as inhibitors. actives 1.8% (n = 300,000). AID 540276. Marburg virus pseudotyped entry inhibition, cell reporter; control for the full effect not named in the record; about a third of the inactives were read at about 46 µM; active = well fitted inhibition curve with a large enough effect; inconclusive = small, poorly fitted or top-dose-only effect, or effect the other way; inactive = flat fitted curve, though single readings scatter; tested in HEK293 cells; about a fifth of its hits are not listed in these tables; also: % is scaled to controls: 0 for no effect and ±100 for the full control effect; luciferase read-out
# SARS PLpro yeast – blocks SARS-CoV papain-like protease in a yeast assay | S. cerevisiae expressing SARS-CoV PLpro, growth rescue; control for the full effect not named in the record | Potency, µM (doses to about 32.9 µM), without a hit: at the top dose activity, positive = growth rescue | actives 0.19% (n = 330,000) | AID 485353; active means well fitted rising curve with a large enough effect; inconclusive means small, poorly fitted or top-dose-only effect; inactive means no such curve, though single readings can be large or run the other way; also: 0% is about no effect; nearly all actives have a fitted effect of over 55% in size; growth read by luminescence after 48 h
# Cruzain noTriton – cruzain (T. cruzi) inhibition without detergent. Potency, µM, for inactives: max response, negative = inhibition, actives largely listed as inhibitors. actives 2.3% (n = 200,000). AID 1476. purified cruzain, Z-FR-AMC fluorescence, no detergent. P25779;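 also: plate controls were enzyme without inhibitor for no effect and buffer without enzyme for full effect; nearly all actives have a fitted effect of over 40% in size; top concentration of the series not given in the record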
# Target sequence (P25779 123-467 limits assumed): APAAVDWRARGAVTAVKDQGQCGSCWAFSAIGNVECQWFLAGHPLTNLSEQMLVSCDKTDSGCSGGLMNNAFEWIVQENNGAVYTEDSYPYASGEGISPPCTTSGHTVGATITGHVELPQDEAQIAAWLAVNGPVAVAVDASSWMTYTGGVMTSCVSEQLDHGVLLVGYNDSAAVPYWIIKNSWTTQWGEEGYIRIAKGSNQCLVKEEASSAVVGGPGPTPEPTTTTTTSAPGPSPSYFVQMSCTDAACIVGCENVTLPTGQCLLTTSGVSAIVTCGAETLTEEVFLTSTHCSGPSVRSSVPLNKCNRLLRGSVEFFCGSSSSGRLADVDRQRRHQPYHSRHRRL
#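 Detergent-free condition (0.00005% Triton X-100) in acetate buffer pH 5.5 with DTT. 1.5 nM enzyme and compound were pre-mixed 15 min, then 2 uM Z-FR-AMC substrate added; reaction progress from fluorescence change between first and third reads (60 s).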
# Cruzain Triton – inhibitors of Trypanosoma cruzi cruzain with detergent | P25779 | Potency, µM, without a hit: max response, negative = inhibition, usual class: inhibitors | purified cruzain, Z-FR-AMC fluorescence, 0.01% Triton | actives 0.43% (n = 200,000);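 also: plate controls were neutral wells for no effect and buffer without enzyme for full effect; nearly all actives have a fitted effect of over 40% in size; top concentration of the series not given in the record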
#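 In this qHTS format, compounds are incubated with 1.5 nM cruzain for 15 min at room temperature before 2 uM Z-FR-AMC is added. Release of AMC is followed at 360/450 nm, and progress is taken as the 60 s fluorescence difference.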
# 2A StopGo – lowers the luciferase signal of an FMDV 2A StopGo reporter; human cells with a luciferase reporter of 2A StopGo recoding; control for the full effect not named in the record; Potency, µM (titrated, usually from 57.9 µM), for the others: top-dose signal change, negative = less light; actives 1.2% (n = 410,000); active = well fitted falling curve with a large enough effect; inconclusive = small, poorly fitted or top-dose-only effect; inactive = no such curve, though single readings can be large or run the other way; tested in HEK293T cells; also: % is scaled to controls: 0 for no effect and ±100 for the full control effect; nearly all actives have a fitted effect of over 45% in size; luciferase light after 4 h
# LASV entry inh – Lassa virus entry inhibition; Potency, µM (doses to about 37.9 µM), without a hit: at the highest dose activity change, negative = inhibition, actives largely listed as inhibitors; actives 1.2% (n = 300,000); AID 540256; Lassa virus pseudotype entry inhibition, cell reporter; control for the full effect not named in the record; active means well fitted inhibition curve with a large enough effect; inconclusive means small, poorly fitted or top-dose-only effect, or effect the other way; inactive means flat fitted curve, though single readings scatter; tested in HEK293 cells; also: % is scaled to controls: 0 for no effect and ±100 for the full control effect; nearly all actives have a fitted effect of over 50% in size; luciferase read-out
# RE007 growth inh – less growth of the S. pombe RE007 Vpr strain; S. pombe RE007 Vpr strain, BacTiter-Glo ATP luminescence, 24 h; control for the full effect not named in the record; Potency, µM (highest dose often 92.2 µM), without a hit: at the top dose activity change, negative = less growth; actives 0.21% (n = 360,000); AID 651644; active = well fitted falling curve with a large enough effect; inconclusive = small, poorly fitted or top-dose-only effect; inactive = no such curve, though single readings can be large or run the other way;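 also: % is scaled to controls: 0 for no effect and ±100 for the full control effect; nearly all actives have a fitted effect of over 50% in size; the assay follows cell death caused by Vpr and the record does not say whether a fall means rescue or toxicity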
#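 Fission yeast RE007 carrying one integrated HIV-1 vpr copy, seeded at OD 0.01 in PMG+AL medium with 23 nL pinned compound. Grown 24 h at 30 degrees; viability read by BacTiter-Glo luminescence after 5 min.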
# Numbers without * were called inactive; ? = inconclusive; nt = no result given; & = joins results of further samples; [ ] = remark or other dose. Unless noted, calls follow the shape of the dose curve; as a rule, active = well fitted curve in the direction sought with a large enough effect; inconclusive = small, poorly fitted or top-dose-only effect, or another doubt; inactive = no such curve, though single readings can be large; an effect the other way counts as inactive or inconclusive. Potency is read from the fitted curve at half-maximal effect.
SMILES,NS1 function inh,MARV entry inh,SARS PLpro yeast,Cruzain noTriton,Cruzain Triton,2A StopGo,LASV entry inh,RE007 growth inh
Nc1c(C(=O)Nc2ccccc2Br)sc2nc(-c3cccs3)ccc12,nt,-18.5%[46.1 µM],nt,20µM*,-7.9%,?,?,nt
O=C(/C=C/c1ccc(Cl)cc1)Nc1nc(-c2cccs2)ns1,nt,3.7%[46.1 µM],nt,0.1%,-2.3%,0.0%,-5.5%[46.1 µM],nt
CCCc1cc(C(=O)NNC(=S)NC(C)c2ccccc2)cs1 (stereo not given),-1.3%,-7.9%,18.6%,11.3%,0.2%,-20.4%,-6.8%,8.7%
O=C(CSc1ncc2c(n1)-c1ccccc1N(Cc1ccc(F)cc1)S2(=O)=O)c1ccc(Br)cc1,nt,5.0%[46.1 µM],nt,?,-2.8%,-2.9%,?,nt
COc1cccc(N2CCN(C(=O)c3ccc4c(=O)n(CCc5ccccc5)c(=O)[nH]c4c3)CC2)c1,nt,0.8%[46.1 µM],nt,0.1%,-1.9%,20µM*,12.3%[46.1 µM],nt
CCOc1cccc(CN2CCCC(CCC(=O)NCc3ccccc3F)C2)c1O (stereo not given),-0.6%,-2.3%[14.2 µM],0.0%,nt,nt,-0.2%,9.4%,-1.0%
CC(=O)OC1CC(C)N(C(=O)c2ccccc2)c2ccc(C)cc21 (stereo not given),-6.1%,?,-2.5%,-0.6%,-0.9%,?,4.3%,1.0%
Cc1c(Cc2ccccc2)c(=O)oc2cc(OCC(=O)NCC3CCC(C(=O)O)CC3)ccc12 (stereo not given),-7.5%,nt,2.4%,nt,nt,-17.5%,nt,-11.4%
CCOC(=O)c1[nH]c2ccc(OC)cc2c1C(SCC(=O)O)c1ccc(C(F)(F)F)cc1 (stereo not given),26.8%,21.3%,-2.4%,nt,nt,-26.5%,-21.1%,24.8%
CCOC(=O)CC(NC(=O)c1cc2cc(Br)cc(OC)c2oc1=O)c1ccc(OC)cc1 (stereo not given),nt,3.3%[46.1 µM],nt,-20.4%,1.0%,-15.4%,16.3%[46.1 µM],nt
Cc1cccc(OCC(=O)NC(=S)N2CCCc3ccccc32)c1,14.9%,14.6%,-1.7%,?,-1.5%,nt,22.9%,0.1%
COc1ccc(NS(=O)(=O)c2cc(NC(=O)c3ccc(C)o3)ccc2N2CCCCC2)cc1,26.4%,?,14.3%,?,-1.0%,67.1%[activator],?,-10.9%
CCN(CC)CCC(=O)NN,nt,?,1.3%,nt,nt,11.9%,22.3%[46.1 µM],0.6%
CCOC(=O)C1=C(C)NC(=O)NC1C (stereo not given),8.2%&0.8%,-4.4%&-4.4%,1.2%,-9.3%,3.9%,nt,17.1%,11.0%
O=C(Nc1nc2c(s1)CCCC2)c1cc(-c2ccc3c(c2)OCO3)nc2ccccc12,12.5%,nt,4.8%,5.01µM*,-3.6%,nt,nt,nt
CC12CCC(=O)N1c1c(sc3nc(N4CCOCC4)c4c(c13)CCCC4)C(=O)N2 (stereo not given),4.5%,1.7%,7.7%,?,-27.8%,-18.5%,-17.4%,-6.8%
O=C(Nc1cccc(-c2nc3ccccc3[nH]2)c1)c1cccc(NC(=O)c2ccco2)c1,4.4%,13µM*,3.3%,5.01µM*,10µM*,31.6µM*,?,-10.0%
Cc1ccc(Oc2nc3c(C)cccn3c(=O)c2/C=C(\C#N)C(N)=O)cc1,-0.5%,-1.8%,-0.1%,nt,nt,17.8µM*,?,0.0%
COc1ccc(OC)c(NC(=O)CNC(=O)c2ccc([N+](=O)[O-])cc2)c1,1.6%,nt,-1.4%,nt,nt,-3.1%,nt,5.9%
O=C(COC(=O)C12CC3CC(CC(C3)C1)C2)NCCc1ccccc1,-65.9%,2.6%,-2.4%,-1.7%,-7.3%,nt,-5.8%,-5.2%
Cc1nonc1NC(=O)CSc1nc2ccccc2cc1C#N,8.4%,nt,-2.2%,nt,nt,29.4%,nt,-6.8%
Cn1cc(Br)c(C(=O)n2cc(Br)cn2)n1,5.4%,-2.9%[46.1 µM],0.3%,nt,nt,-17.5%,-9.4%,-16.2%
O=C(CCc1nnc2ccc(N3CCC4(CC3)OCCO4)nn12)Nc1cc(F)ccc1F,12.4%,-1.7%[46.1 µM],-3.4%,nt,nt,-8.6%,20.4%[46.1 µM],3.6%
Cc1cc(C)cc(NC(=O)CSc2nc3c(oc4ccccc43)c(=O)n2-c2ccccc2)c1,5.01µM*,?,-5.6%,?,3.1%,-10.8%,-1.8%,-1.3%
COc1cc(OC)cc(C(=O)NNC(=S)Nc2ccc(S(N)(=O)=O)cc2)c1,12.5%,?,0.3%,nt,nt,-5.3%,-15.7%[46.1 µM],3.9%
N#CC(c1ccncc1)(c1ncc(C(F)(F)F)cc1Cl)N1CCOCC1 (stereo not given),nt,?,-2.9%,nt,nt,0.0%,?,6.9%
CCOc1ccc(Cn2c(=O)sc3ccccc32)cc1OC,-30.2%,nt,-4.5%,nt,nt,-29.8%,nt,-9.6%
Cc1ccccc1NC(=O)Cc1nnc(N)s1,2.1%,18.6%,0.4%,nt,nt,-17.8%,?,-15.1%
CCCc1cc(=O)[nH]c(Nc2cc(C)cc(C)c2)n1,nt,nt,nt,-1.0%,-7.7%,-14.1%,7.4%[46.1 µM],nt
CCOc1ccc(C(=O)NCC(=O)NCC2CCCCC2)cc1OCC,8.6%,-0.7%[46.1 µM],-1.4%,nt,nt,6.2%,-1.0%,4.1%
CC(=O)c1c(O)c2ccccc2n(C(C)C)c1=O,3.8%,-6.3%[46.1 µM],1.4%,nt,nt,-13.2%,20.5%[46.1 µM],5.8%
O=C(Cn1c(C(=O)OCCO)cc2ccccc21)c1ccccc1,8.3%,?,-1.5%,nt,nt,-3.1%,?,-9.6%
Cn1c(=O)c2c(ncn2CC(=O)Nc2ccccc2N2CCOCC2)n(C)c1=O,5.4%,0.0%,1.1%,3.5%,1.8%,-8.0%,7.8%,-3.2%
O=C(N/N=C/c1ccco1)c1cccc(N2Cc3ccccc3C2)c1,25.8%,nt,0.4%,nt,nt,-2.1%,nt,-2.3%
CC(=O)N(Cc1nc2sc(C)c(C)c2c(=O)[nH]1)C1CCCC1,1.0%,-10.9%,0.5%,nt,nt,?,?,0.6%
CCCCc1cc(=O)oc2cc(OS(C)(=O)=O)ccc12,-19.6%,10.1%,-1.3%,0.7%,-5.5%,27.0%,?,-0.4%
O=C(NCCNC(=O)c1ccc(-c2ccc(Cl)c(Cl)c2)o1)c1cnccn1,-0.1%,?,-1.9%,nt,nt,9.7%,-21.6%[46.1 µM],9.6%
CCOc1cccc(C(=O)Nc2nnc(-c3ccco3)s2)c1,-7.1%,3.98µM*,6.0%,?,2.7%,-37.8%,?,-6.6%
O=C(Nc1ccc(S(=O)(=O)Nc2cnc3ccccc3n2)cc1)c1cccc(OC(F)F)c1,2.9%,-0.3%[46.1 µM],0.7%,nt,nt,27.6%,?,11.5%
NC(=O)C1CCN(C2CC(=O)NC2=O)CC1 (stereo not given),nt,12.8%[46.1 µM],0.7%,nt,nt,0.0%,7.8%[46.1 µM],-14.5%
COc1ccc(C2=CC(c3ccc(N(C)C)cc3)n3nnnc3N2)cc1 (stereo not given),nt,nt,nt,-8.5%,-0.8%,0.0%,-2.2%[46.1 µM],nt
Cn1c(O)c(C=Nc2ccc(Cl)cc2)c(=O)n(C)c1=O,-6.3%,-18.5%[46.1 µM],-11.1%,2.5%,0.6%,4.1%,-10.4%,?
CCOc1ccc(CCNC(=O)CCC(=O)N2CCOc3ccc(C)cc32)cc1OCC,-4.7%,nt,0.9%,nt,nt,-19.3%,nt,-6.9%
O=C1OCC2=C1C(c1ccccc1)CC(=O)N2c1ccccc1 (stereo not given),nt,18.9%[46.1 µM],3.4%,nt,nt,-5.6%,5.6%,7.0%
CCOC(=O)C(=O)N/N=C/c1ccc(F)cc1,-0.5%,-1.5%[46.1 µM],-0.9%,nt,nt,43.8%[activator],-0.4%,-11.2%
Cc1nn(-c2ccccc2)c(NC(=O)c2cccs2)c(-c2ccccc2)c1=O,2.0%,19.3%,5.5%,1.4%,-4.8%,1.3%,13.1%,6.5%
COc1cccc(/C=C2\Oc3cc(OCC(=O)N4CCCCC4)ccc3C2=O)c1OC,-13.8%,4.3%[46.1 µM],-44.8%,nt,nt,0.6%,?,11.4%
COC(=O)Nc1nc(-c2ccccc2)c(C(=O)c2ccccc2)s1,2.8%,?,1.7%,-6.9%,-9.5%,-15.3%,3.16µM*,3.3%
Cc1ccc(CSC2=Nc3ccccc3C3=NC(CCC(=O)NCc4cccs4)C(=O)N23)c(C)c1 (stereo not given),nt,nt,nt,6.5%,-5.0%,-7.0%,?,nt
COc1cc2c(cc1OC)C(COc1ccc3c(C)cc(=O)oc3c1)N(C(=O)c1ccccc1F)CC2 (stereo not given),nt,14.4%[46.1 µM],nt,?,25.6%,0.0%,-11.1%[46.1 µM],nt
C=C1CC2C(CCC3(C)C2CCC3(O)C(C)=O)C2(C)CCC(=O)C=C12 (stereo not given),-1.3%,?,-1.3%,nt,nt,25.1µM*,5.62µM*,-3.7%
Cc1cccc2cc(/C=N/NC(=O)CN3CCOCC3)c(Cl)nc12,-8.0%,7.5%,10.3%,10.2%,-4.8%,-2.2%,-0.9%,1.4%
CCn1c(=O)c2c(nc3n2CCCN3CCc2ccc(OC)c(OC)c2)n(C)c1=O,-1.5%,-16.8%,0.0%,nt,nt,?,-12.5%,1.4%
Cc1nn(-c2ccccc2)nc1C(N)=O,2.6%,-3.5%[46.1 µM],0.9%,nt,nt,-9.7%,22.7%[46.1 µM],1.2%
N#Cc1c(-c2ccc3c(c2)OCO3)ccn2nc(-c3cccc(C(F)(F)F)c3)nc12,8.3%,-2.9%,-3.5%,?,-3.5%,8.9%,-25.5%,8.8%
CN(C)/C=C(\C=O)c1ccc(Cl)cc1Cl,4.5%,nt,0.6%,nt,nt,-3.9%,nt,3.9%
NC(=S)N/N=C1\CCOc2ccc(F)cc21,10.7%,10.1%[46.1 µM],-0.9%,nt,nt,-16.3%,nt,1.3%
